High-throughput results deposited in PubChem BioAssay by Broad Institute.
DUX4 txn inh: inhibitors of DUX4-driven ZSCAN4 reporter expression, primary screen, 293T cells, Gaussia and Italica luciferase; 293T-iDUX4 ZSCAN4-Gaussia luciferase reporter, 24 h; stronger effect = lower value; activity change, negative = inhibition, % (no concentration beside the values); hit rate 0.8% among 37,000;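 active = -10% or lower and over 25 points stronger than a control reporter; inconclusive = -10% or lower with a smaller gap; inactive = above -10%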;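 also: 0% = median of neutral control wells and -100% = median of positive control wells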
DUX4 txn inh difference: recorded beside DUX4 txn inh, whose call it bears; Gaussia minus Italica difference, %; measured here: selective DUX4 reporter inhibition;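 worked out from the two reporters; negative = selective loss of the DUX4 reporter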
DUX4 txn inh control: also measured in DUX4 txn inh; calls as there; activity change, negative = inhibition, %; measured here: Italica tet-on control reporter;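 0 = neutral control and -100 = positive control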
Numbers without * were called inactive; ? = inconclusive; . = not tested or not shown. Only part of the results is shown. The share of hits here may be higher or lower than overall.

SMILES	DUX4 txn inh	DUX4 txn inh difference	DUX4 txn inh control
C[C@H](CO)N1C[C@H](C)[C@H](CN(C)S(=O)(=O)c2ccccc2F)Oc2ncc(C#Cc3ccncc3)cc2C1=O	2	-5	6.7
C[C@H](NC(=O)[C@H]1[C@H](CO)[C@H]2Cn3c(ccc(-c4ccncc4)c3=O)[C@H]2N1C)c1ccccc1	3	11	-8.6
CO[C@@H](CN(C)C(=O)c1ccc2c(c1)OCO2)[C@H](C)CN([C@H](C)CO)S(=O)(=O)c1ccccc1	-2	3	-4.2
Cc1ccccc1S(=O)(=O)NCC[C@@H]1CC[C@H](NC(=O)Nc2cccc(F)c2)[C@@H](CO)O1	2	9	-7.2
CC(C)OC(=O)N(C)C[C@@H]1OCc2cn(nn2)CCCC(=O)N([C@@H](C)CO)C[C@@H]1C	6	4	2.2
Cc1noc(C)c1S(=O)(=O)N(C)C[C@@H]1OCc2cn(nn2)CCCC(=O)N([C@@H](C)CO)C[C@H]1C	7	6	1.2
O=C(Cc1ccccc1)N1CC[C@@H]2[C@H]1c1cc(-c3cccc(F)c3)ccc1N[C@@H]2CO	?	.	.
O=C(c1cccnc1)N1C[C@@H]2[C@H](c3ccccc31)[C@@H](CO)N2C(=O)Nc1ccccc1F	4	4	-0.1
O=C(C[C@@H]1C[C@@H]2c3cc(NC(=O)Cc4ccncc4)ccc3O[C@@H]2[C@H](CO)O1)NCCc1ccccc1	1	1	-0.9
COc1cccc(S(=O)(=O)N2CC[C@@H]3[C@H](CO)Nc4ccc(C5=CCCCC5)cc4[C@@H]32)c1	?	.	.
CCNC(=O)[C@H]1[C@H](CO)[C@H]2Cn3c(cccc3=O)[C@H]2N1C(=O)CC1CC1	13	7	5.8
O=C(C[C@H]1C[C@H]2c3cc(NC(=O)c4ccc5c(c4)OCO5)ccc3O[C@H]2[C@@H](CO)O1)NC1CCCCC1	2	1	1.2
Cc1noc(C)c1NC(=O)N1C[C@H](O)COC[C@@H]2O[C@H](CC(=O)N[C@@H]3CCN(Cc4ccccc4)C3)CC[C@H]21	10	7	3.4
COCCNC(=O)C[C@H]1C[C@H]2c3cc(NC(=O)CN(C)C)ccc3O[C@H]2[C@@H](CO)O1	2	2	0.1
CCCN1[C@@H]2Cn3c(ccc(-c4ccccc4OC)c3=O)[C@H]1[C@@H](C(=O)N1CCOCC1)[C@@H]2CO	-1	-1	0.1
O=C(C[C@@H]1CC[C@@H]2[C@H](COC[C@@H](O)CN2C(=O)Nc2cc(Cl)cc(Cl)c2)O1)N1CCCCC1	?	.	.
COc1cccc(S(=O)(=O)N2CCCCN3[C@H](CO)[C@H](c4ccc(C5=CCCCC5)cc4)[C@@H]3C2)c1	?	.	.
CCC(=O)Nc1ccc2c(c1)C(=O)N(C)[C@H]1CC[C@H](CC(=O)N[C@@H](C)c3ccccc3)O[C@H]1CO2	0	2	-1.4
CO[C@@H]1CN(C)C(=O)c2cc(NC(C)=O)ccc2OC[C@H](C)N(C(=O)Cc2ccccn2)C[C@@H]1C	5	3	2.6
Cc1ccc(-c2ccccc2[C@@H]2[C@H](C#N)N(C(=O)Cc3cccnc3)[C@H]2CO)cc1	2	9	-7.1
C[C@@H]1CN([C@@H](C)CO)S(=O)(=O)c2ccc(C3=CCCCC3)cc2O[C@H]1CN(C)C(=O)C1CCCCC1	3	-1	3.7
CO[C@@H]1CN(C)C(=O)c2ccc(NS(=O)(=O)c3ccccc3C)cc2OC[C@H](C)N(C)C[C@H]1C	11	9	1.9
O=C(O)[C@H]1[C@H](CO)[C@H]2Cn3c(ccc(/C=C/c4ccccc4)c3=O)[C@H]2N1Cc1ccc2c(c1)OCO2	-4	-6	2.2
COc1cccc(C#Cc2ccc3c(c2)O[C@@H](CN(C)C(=O)CN2CCOCC2)[C@@H](C)CN([C@@H](C)CO)S3(=O)=O)c1	2	1	1.1
C[C@H](CO)N1C[C@H](C)[C@@H](CN(C)C(=O)Nc2cccc3ccccc23)Oc2c(NC(=O)Nc3ccc(C(F)(F)F)cc3)cccc2C1=O	2	-2	4.6
COc1ccccc1C#Cc1ccc([C@H]2[C@@H](C#N)N(C(=O)C3CCCCC3)[C@@H]2CO)cc1	-1	-1	-0.1
CN1CCN(C(=O)C[C@H]2CC[C@@H]3[C@H](COC[C@@H](O)CN3Cc3cccc(F)c3)O2)CC1	2	1	0.6
CN(C)C(=O)c1cccc(-c2ccc([C@H]3[C@H](CO)N4CCCCN(CC5CCOCC5)C[C@@H]34)cc2)c1	24	11	13
CC(=O)N1[C@@H](CO)[C@H](c2ccccc2)C12CN(C(=O)c1ccc3c(c1)OCO3)C2	2	-5	6.1
CCCC#Cc1ccc([C@@H]2[C@@H](C#N)N(C(=O)C3CCCCC3)[C@@H]2CO)cc1	2	3	-1.0
C[C@@H]1CN([C@@H](C)CO)S(=O)(=O)c2ccc(C#CCN(C)C)cc2O[C@@H]1CN(C)S(C)(=O)=O	-5	-6	1.1
COc1cccc(NC(=O)N[C@H]2CC[C@@H](CC(=O)N3CCN(C)CC3)O[C@H]2CO)c1	-5	-8	2.6
C[C@H](CO)N1C[C@H](C)[C@H](CN(C)Cc2ccccc2C(F)(F)F)OCc2ccccc2-c2ccccc2C1=O	0	-5	4.8
CC(C)(C)S(=O)N1Cc2cc(C(=O)NCc3ccc4c(c3)OCO4)nc(-c3cccc(-c4cccc(F)c4)c3)c2[C@@H]1CCO (stereo partly specified)	-4	-6	1.6
CNC[C@@H]1OCCCC[C@H](C)Oc2ccc(NS(=O)(=O)c3ccc(F)cc3)cc2C(=O)N([C@H](C)CO)C[C@@H]1C	0	0	-0.6
O=C(C[C@@H]1CC[C@@H]2[C@H](COC[C@H](O)CN2Cc2ccccc2F)O1)N1CCc2ccccc2C1	?	.	.
COc1cccc(S(=O)(=O)Nc2ccc3c(c2)[C@H]2C[C@@H](CC(=O)NCc4ccccc4F)O[C@H](CO)[C@H]2O3)c1	0	-4	4.0
C[C@@H]1CN([C@H](C)CO)C(=O)c2cc(N(C)C)ccc2O[C@@H]1CN(C)S(=O)(=O)c1cccs1	-3	3	-5.2
O=C(C[C@H]1CC[C@H]2[C@@H](COC[C@H](O)CN2Cc2cc(F)cc(F)c2)O1)Nc1nccs1	-10	-3	-6.9
CCNC(=O)C[C@@H]1CC[C@@H]2[C@H](COC[C@@H](O)CN2C(=O)c2cccnc2)O1	15	6	8.6
C[C@@H]1CN([C@@H](C)CO)C(=O)c2c(c3ccccc3n2C)-c2ccccc2CO[C@H]1CN(C)S(=O)(=O)CC(F)(F)F	-6	2	-7.6
O=C(Nc1cccc(Cl)c1)N1C[C@H]2[C@@H](c3ccccc31)[C@@H](CO)N2CC1CCOCC1	1	-1	1.9
COc1ccc(C#Cc2ccc([C@H]3[C@@H](CO)N4CCCCN(Cc5ccncc5)C[C@@H]34)cc2)cc1	?	.	.
COc1ccc(S(=O)(=O)Nc2ccc3c(c2)C(=O)N([C@H](C)CO)C[C@H](C)[C@@H](CN(C)C(=O)CCC(F)(F)F)OCCCC[C@@H](C)O3)cc1	2	6	-3.8
COc1ccc2c3c([nH]c2c1)[C@H](CO)N(Cc1cccc(F)c1)CC31CCN(Cc2ccccn2)CC1	?	.	.
C[C@H](CO)N1C[C@H](C)[C@@H](CN(C)C(=O)Nc2cccc3ccccc23)Oc2ccc(NS(=O)(=O)c3cn(C)cn3)cc2C1=O	0	-3	2.8
CCN(C[C@H]1N[C@H](CO)[C@H]1c1ccc(-c2cccc(C#N)c2)cc1)C(=O)COC	-4	-2	-1.5
CN1C(=O)c2cc(NC(=O)c3ccc4c(c3)OCO4)ccc2OC[C@@H]2O[C@@H](CC(=O)O)CC[C@@H]21	-2	-3	1.0
COCCNC(=O)c1cc2c(c(-c3cccc(-c4ccc(C#N)cc4)c3)n1)[C@@H](CCO)N(C(=O)CC1CC1)C2	-6	1	-6.7
CO[C@H]1CN(C)C(=O)c2ccc(NC(=O)c3cnccn3)cc2OC[C@@H](C)N(C(=O)C2CC2)C[C@H]1C	1	2	-0.5
COCC(=O)N1CC(=O)N2[C@H](CO)[C@H](c3ccc(C#Cc4cccnc4)cc3)[C@@H]2C1	?	.	.
CCNC(=O)c1cc2c(c(-c3cccc(-c4cncnc4)c3)n1)[C@@H](CCO)N(C(C)=O)C2	-1	-4	2.7
O=C(C[C@H]1CC[C@@H]2[C@H](COC[C@H](O)CN2CC2CCOCC2)O1)N1CCOCC1	-2	-3	1.0
CN(C)CCCNC(=O)C[C@@H]1CC[C@@H]2[C@H](COc3ccc(NC(=O)c4ccc5c(c4)OCO5)cc3C(=O)N2C)O1	4	1	3.2
CC(C)NC[C@H]1[C@H](c2ccc(C3=CCCCC3)cc2)[C@@H](CO)N1C(=O)NC(C)C	0	-3	3.0
O=C(C1CCC1)N1CC2(C1)[C@H](c1ccccc1)[C@@H](CO)N2C(=O)CC1CC1	6	2	4.8
C[C@@H]1CCCCO[C@@H](CN(C)C(=O)NC2CCCCC2)[C@@H](C)CN([C@H](C)CO)C(=O)c2cc(NC(=O)Cc3ccccc3)ccc2O1	2	3	-0.2
CN1CCN(C(=O)C[C@@H]2C=C[C@H](NC(=O)Nc3ccccc3F)[C@H](CO)O2)CC1	8	6	1.3
Cc1noc(C)c1S(=O)(=O)N(C)C[C@@H]1OCCCC[C@@H](C)Oc2ccc(NC(=O)CCCCCC(=O)Nc3ccccc3N)cc2C(=O)N([C@H](C)CO)C[C@@H]1C	0	1	-0.2
O=C(c1ccc(F)cc1)N1CC(=O)N2[C@H](CO)[C@H](c3ccc(C#CCC4CCCC4)cc3)[C@H]2C1	?	.	.

(further entries)
SMILES	DUX4 txn inh	DUX4 txn inh difference	DUX4 txn inh control
COc1ccccc1NC(=O)N[C@H]1C=C[C@@H](CC(=O)N[C@@H](C)c2ccccc2)O[C@H]1CO	7	7	-0.5
Cc1ccccc1S(=O)(=O)N1CC(=O)N2[C@H](C1)[C@H](c1ccc(C#CCC(C)C)cc1)[C@@H]2CO	?	.	.
O=C(C[C@@H]1CC[C@@H]2[C@H](COC[C@H](O)CN2C(=O)Nc2ccc(C(F)(F)F)cc2)O1)NC1Cc2ccccc2C1	-6	-8	1.3
C[C@@H]1CCCCO[C@H](CN(C)Cc2ccc(C(=O)O)cc2)[C@H](C)CN([C@H](C)CO)C(=O)c2cc(NS(=O)(=O)c3ccc(F)cc3)ccc2O1	4	-1	5.0

An excerpt from above in order of molar mass, descending.
SMILES	DUX4 txn inh	DUX4 txn inh difference	DUX4 txn inh control
Cc1noc(C)c1S(=O)(=O)N(C)C[C@@H]1OCCCC[C@@H](C)Oc2ccc(NC(=O)CCCCCC(=O)Nc3ccccc3N)cc2C(=O)N([C@H](C)CO)C[C@@H]1C	0	1	-0.2
C[C@@H]1CCCCO[C@H](CN(C)Cc2ccc(C(=O)O)cc2)[C@H](C)CN([C@H](C)CO)C(=O)c2cc(NS(=O)(=O)c3ccc(F)cc3)ccc2O1	4	-1	5.0
C[C@H](CO)N1C[C@H](C)[C@@H](CN(C)C(=O)Nc2cccc3ccccc23)Oc2ccc(NS(=O)(=O)c3cn(C)cn3)cc2C1=O	0	-3	2.8
CN(C)CCCNC(=O)C[C@@H]1CC[C@@H]2[C@H](COc3ccc(NC(=O)c4ccc5c(c4)OCO5)cc3C(=O)N2C)O1	4	1	3.2
O=C(C[C@@H]1CC[C@@H]2[C@H](COC[C@H](O)CN2C(=O)Nc2ccc(C(F)(F)F)cc2)O1)NC1Cc2ccccc2C1	-6	-8	1.3
COCCNC(=O)c1cc2c(c(-c3cccc(-c4ccc(C#N)cc4)c3)n1)[C@@H](CCO)N(C(=O)CC1CC1)C2	-6	1	-6.7
COc1ccc2c3c([nH]c2c1)[C@H](CO)N(Cc1cccc(F)c1)CC31CCN(Cc2ccccn2)CC1	?	.	.
CO[C@H]1CN(C)C(=O)c2ccc(NC(=O)c3cnccn3)cc2OC[C@@H](C)N(C(=O)C2CC2)C[C@H]1C	1	2	-0.5
CN1C(=O)c2cc(NC(=O)c3ccc4c(c3)OCO4)ccc2OC[C@@H]2O[C@@H](CC(=O)O)CC[C@@H]21	-2	-3	1.0
Cc1ccccc1S(=O)(=O)N1CC(=O)N2[C@H](C1)[C@H](c1ccc(C#CCC(C)C)cc1)[C@@H]2CO	?	.	.
O=C(c1ccc(F)cc1)N1CC(=O)N2[C@H](CO)[C@H](c3ccc(C#CCC4CCCC4)cc3)[C@H]2C1	?	.	.
CCNC(=O)c1cc2c(c(-c3cccc(-c4cncnc4)c3)n1)[C@@H](CCO)N(C(C)=O)C2	-1	-4	2.7
CN1CCN(C(=O)C[C@@H]2C=C[C@H](NC(=O)Nc3ccccc3F)[C@H](CO)O2)CC1	8	6	1.3
COCC(=O)N1CC(=O)N2[C@H](CO)[C@H](c3ccc(C#Cc4cccnc4)cc3)[C@@H]2C1	?	.	.
CC(C)NC[C@H]1[C@H](c2ccc(C3=CCCCC3)cc2)[C@@H](CO)N1C(=O)NC(C)C	0	-3	3.0
CCN(C[C@H]1N[C@H](CO)[C@H]1c1ccc(-c2cccc(C#N)c2)cc1)C(=O)COC	-4	-2	-1.5
O=C(C1CCC1)N1CC2(C1)[C@H](c1ccccc1)[C@@H](CO)N2C(=O)CC1CC1	6	2	4.8
